# A488 autofl – compound autofluorescence in A488 spectral region. max dye equivalency, M. compound autofluorescence, A488 spectral region, dye equivalency; hits give high values. AID 591. 59,000 compounds, 0.1% hits; active = above 10 nM dye equivalent; inconclusive = 1 to 10 nM; inactive = 1 nM or less; about half of its hits are not listed in these tables;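 also: highest value over a series up to 38 µM; compound alone in buffer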
#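 Readout is A488 dye-equivalent concentration, calibrated by a per-plate six-point Alexa 488 series. Compounds in 100 mM Tris buffer pH 8.0 were incubated 15 min at room temperature. Plates were imaged using 480 nm excitation/540 nm emission filters.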
# AID923 – qHTS Assay for Allosteric/Competitive Inhibitors of Caspase-1: Spectroscopic Profiling in AFC Spectral Region | compound fluorescence, AFC spectral region (405/520 nm); almost no hit is shown here | 75,000 compounds, 1.1% hits | AID 923, 2007 | Potency, µM (top dose mostly 57.5 µM), for inactives: at the highest dose fluorescence increase, most hits filed as activators; active = well fitted activation curve with a large enough effect; inconclusive = small, poorly fitted or top-dose-only effect;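 also: potency is read from the fitted curve at half-maximal effect; 0% is about no effect; scaled to a free AFC standard on each plate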
#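 Compound autofluorescence profiled at 405 nm ex/520 nm em during kinetic caspase 1 run (50 nM enzyme, 5 uM Ac-WEHD-AFC, HEPES pH 7.5, 10 mM DTT). Titration up to 57 uM; baseline from regression intercept, normalized to AFC standard curve.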
# Resorufin fluor – resorufin region autofluorescence; max dye-equivalent concentration, M; 59,000 compounds, 0.04% hits; AID 588; Compound fluorescence, resorufin region 547/598 nm, buffer; hits give high values; active = above 10 nM dye equivalent; inconclusive = 1 to 10 nM; inactive = 1 nM or less; a few of its hits are not listed in these tables; also: highest value over a series up to 38 µM
#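 Intrinsic fluorescence profiled in the resorufin window (ex 547 nm, em 598 nm) after 15 min at room temperature in pH 8.0 Tris buffer (100 mM); responses normalized against a six-point resorufin standard series as dye-equivalent concentration.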
# A647 autofl – A647 region autofluorescence | Compound fluorescence, A647 channel (570/671 nm), Tris buffer | max dye-equivalent concentration, M | AID 592 | 59,000 tested, under 10 active; active means above 1 µM dye equivalent; inconclusive means 0.1 to 1 µM; inactive means 0.1 µM or less;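 also: values scaled relative to a standard on each plate; highest value over a series up to 38 µM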
#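 Each compound's intrinsic fluorescence at 570 nm excitation and 671 nm emission is measured across its concentration series in 100 mM Tris, pH 8.0, after 15 min at room temperature, and reported relative to an A647 curve.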
# TSHR ag – agonists of human thyroid stimulating hormone receptor | P16473 | HEK293-CNG-TSHR cells (CNG channel as cAMP sensor), membrane potential dye, cAMP | Potency, µM (titrated, usually from 57.1 µM), without a hit: at the highest dose activation, usual class: activators | 73,000 compounds, 0.48% hits | AID 926; active = well fitted activation curve of enough size with the parental cells flat; inconclusive = any curve in the parental cells; inactive = parental cells flat and receptor cells flat or falling; also: potency is read from the fitted curve at half-maximal effect; % of control where 0% means no effect; weak receptor curves with flat parental cells got no call and are not listed
# Target sequence (P16473 whole entry, looked up): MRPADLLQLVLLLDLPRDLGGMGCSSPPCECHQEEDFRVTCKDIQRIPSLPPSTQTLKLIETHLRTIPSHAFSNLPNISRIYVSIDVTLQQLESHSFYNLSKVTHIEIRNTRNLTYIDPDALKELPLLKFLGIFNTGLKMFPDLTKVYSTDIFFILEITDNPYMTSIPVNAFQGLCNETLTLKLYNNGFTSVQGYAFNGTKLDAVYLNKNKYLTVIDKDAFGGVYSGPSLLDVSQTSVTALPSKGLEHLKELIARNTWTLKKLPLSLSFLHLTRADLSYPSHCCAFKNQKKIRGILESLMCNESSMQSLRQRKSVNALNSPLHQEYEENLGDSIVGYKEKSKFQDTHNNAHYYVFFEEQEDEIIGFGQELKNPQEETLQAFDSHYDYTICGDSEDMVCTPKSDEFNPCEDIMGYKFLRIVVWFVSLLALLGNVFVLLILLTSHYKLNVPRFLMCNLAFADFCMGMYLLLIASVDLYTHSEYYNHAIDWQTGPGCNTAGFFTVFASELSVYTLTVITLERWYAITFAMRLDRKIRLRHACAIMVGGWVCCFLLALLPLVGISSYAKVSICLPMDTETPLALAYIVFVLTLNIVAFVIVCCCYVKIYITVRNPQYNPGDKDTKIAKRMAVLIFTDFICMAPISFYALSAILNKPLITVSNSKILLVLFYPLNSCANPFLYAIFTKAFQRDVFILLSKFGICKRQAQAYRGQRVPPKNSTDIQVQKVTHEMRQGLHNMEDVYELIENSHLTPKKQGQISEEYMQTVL
#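 HEK 293 cells stably expressing TSHR and a cAMP-gated CNG channel; parental CNG-only cells as counterscreen. Cells preloaded 60 min with membrane potential dye plus 100 uM RO 20-1724, then compound 30 min; fluorescence read at 590 nm.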
# * = called active by the depositor; i = inactive; u = inconclusive; x = not tested or not shown; & = joins results of further samples; [ ] = remark or other dose.
SMILES,A488 autofl,AID923,Resorufin fluor,A647 autofl,TSHR ag
Cc1nc(-c2ccccc2)cc(=O)[nH]1,i,-0.6%,i,1.1e-08,-3%
O=C(Oc1ccc(-c2nnco2)cc1)N(c1ccccc1)c1ccccc1,i,-1.5%,i,2.1e-08,u
CCCCCCC1=Cc2cc(OC)c(OC)cc2C(C(C(C)=O)C(=O)OCC)O1 (stereo not drawn),x,0.4%[11.5 µM],x,x,9%[11.4 µM]
C/C(=C(\C#N)C(=O)NCCCN1CCOCC1)N(C)C,i,1.0%,i,1.1e-08,u
Cc1ccc(-c2nnn(CC(=O)N(CC(=O)NC3CCCC3)c3cnc4ccccc4c3)n2)o1,i,4.8%,i,3.9e-08,4%
CN[C@@H](CC(C)C)C(=O)N[C@@H]1C(=O)N[C@H](CC(N)=O)C(=O)N[C@@H]2C(=O)N[C@H]3C(=O)N[C@H](C(=O)N[C@H](C(=O)O)c4cc(O)cc(O)c4-c4cc3ccc4O)[C@H](O)c3ccc(c(Cl)c3)Oc3cc2cc(c3O[C@H]2O[C@@H](CO)[C@@H](O)[C@@H](O)[C@@H]2O[C@@H]2C[C@](C)(N)[C@H](O)[C@H](C)O2)Oc2ccc(cc2Cl)[C@@H]1O,i,-0.5%[25.7 µM],i,4.6e-09,-5%[25.6 µM]
Cc1c(Br)cc(C(=O)N2CCCC2)c(C)c1C,x,-1.2%,x,x,1%
CS(=O)(=O)c1cccc(C(=O)Oc2ccccc2)c1,i,-0.5%,i,3.9e-09,-1%
Cc1ncoc1C(=O)Nc1nccs1,i,-0.6%,i,1.1e-08,0%
COc1ncc2nc(CCc3ccccc3)c(=O)n(CCC#N)c2n1,i,-1.7%,i,2.3e-08,u
CCOc1ccccc1CN1C(=O)c2ccccc2C1C(=O)NCC1CCCO1 (stereo not drawn),i,-0.4%,i,2.6e-09,-3%
CCOC(=O)c1nnn(CC(=O)Nc2cccc(Cl)c2C)c1C(=O)OCC,i,0.3%,i,1e-09,2%
Cc1ccc(S(=O)(=O)NCCCN2CCOCC2)cc1C,i,0.4%,i,6.1e-09,2%
CSc1ccccc1NC(=O)CCn1c(=O)sc2ccccc21,i,-1.1%,i,2.3e-08,0%
CCCn1c(-c2ccc(F)cc2)nc2c(NCC3CCCN3CC)nc(C)nc21 (stereo not drawn),x,2.1%,x,x,u
CCOC(=O)c1[nH]c(C)c(C(=O)NCCCN2CCOCC2)c1C,i,-2.1%,i,1.5e-08,6%
COc1ccc(CCNC(=O)c2ccc(CN3CCOCC3)cc2)cc1,i,3.1%,i,3.9e-08,2%
CC1(C)NC(C)(C)C(O)(C(N)=O)C1=O (stereo not drawn),i,-0.4%,i,4.8e-09,u
Clc1ccc(-n2nnnc2Sc2ncnc3sccc23)cc1,i,-1.3%,i,1.6e-08,10%[11.4 µM]
CCCNC(=O)NC(=O)CSc1nc2ccccc2n1CC(C)C,i,-1.4%,i,3.5e-08,u
CC(=O)N1CCC2(CC1)CN(C(=O)Nc1cccc(C#N)c1)C2,i,-1.0%,i,3.8e-09,u
CC(=O)N1CC=CC1(CC(C)C)C(=O)NCc1ccccn1 (stereo not drawn),x,-0.3%,x,x,2%
Cc1noc(/C=C/N(C)C)c1S(=O)(=O)NC1CCCCC1,i,1.4%,i,1e-09,4%[11.4 µM]
O=C(c1cnn2c(C(F)(F)F)cc(-c3ccc4c(c3)OCO4)nc12)N1CCCC1,i,1.2%,i,1.5e-08,u
Cc1cc(C(=O)CSc2nnc(-c3ccccc3F)o2)c(C)n1Cc1cccs1,i,0.9%,i,7.7e-09,u
COC(=O)[C@@]1(Cc2ccc(OC)cc2)[C@H]2c3cc(C(=O)N4CCCC4)n(Cc4ccsc4Br)c3C[C@H]2CN1C(=O)c1ccccc1,x,5.4%,x,x,u
Cc1cc(=O)n2nc(N3CCCC3C(=O)NCCCN3CCCCC3)sc2n1 (stereo not drawn),i,0.6%,i,1.1e-09,0%
CCN1CCN(C(=O)c2cc3cc4cc(OC)ccc4nc3s2)CC1,i,5.8%,i,4.8e-08,16%
CC(C)Cc1nnc(NC(=O)CSc2nc(=O)cc(N)n2-c2ccccc2)s1,i,1.4%,i,2.1e-08,-8%
COc1ccc(N2CC(C(=O)NCCC3=CCCCC3)CC2=O)cc1 (stereo not drawn),i,-0.3%,i,1.8e-09,1%

# Reformatted as labelled records: 2 of the compounds above
CCCNC(=O)NC(=O)CSc1nc2ccccc2n1CC(C)C
  A488 autofl = i; AID923 = -1.4%; Resorufin fluor = i; A647 autofl = 3.5e-08; TSHR ag = u

CC(=O)N1CCC2(CC1)CN(C(=O)Nc1cccc(C#N)c1)C2
  A488 autofl = i; AID923 = -1.0%; Resorufin fluor = i; A647 autofl = 3.8e-09; TSHR ag = u

# Single records, from the list above. Screens in order: A488 autofl | AID923 | Resorufin fluor | A647 autofl | TSHR ag
# Profile of Cc1ncoc1C(=O)Nc1nccs1 → i | -0.6% | i | 1.1e-08 | 0%
# Profile of Cc1cc(C(=O)CSc2nnc(-c3ccccc3F)o2)c(C)n1Cc1cccs1 → i | 0.9% | i | 7.7e-09 | u
# Profile of CCCNC(=O)NC(=O)CSc1nc2ccccc2n1CC(C)C → i | -1.4% | i | 3.5e-08 | u

# The list goes on.
SMILES,A488 autofl,AID923,Resorufin fluor,A647 autofl,TSHR ag
CCOc1ccc(Cn2nnc(C(=O)Nc3ccc(OC)cc3OC)c2N)cc1,x,-2.3%,x,x,12%
O=C(Cn1cnc2c(nnn2-c2ccccc2)c1=O)N1CCOCC1,x,4.9%,x,x,-9%
O=S(=O)(c1ccccc1)c1nc(-c2ccco2)oc1NCCCN1CCOCC1,i,1.4%,i,1.4e-09,1%
Cc1ccc(-c2cc(C(F)F)n3ncc(C(=O)N4CCN(c5ccccn5)CC4)c3n2)cc1,x,17%,x,x,u
COc1ccc(S(=O)(=O)NC(CC(=O)NCC2CCCO2)c2ccco2)cc1 (stereo not drawn),i,1.6%,i,2.7e-08,7%
COC(=O)C1=C(CSCc2ccco2)NC(=O)NC1c1cc(C)ccc1C (stereo not drawn),i,-0.9%,i,1.5e-08,1%
Cc1ccc(C2CC(c3ccco3)n3ncnc3N2)cc1 (stereo not drawn),x,1.5%,x,x,9%
CCC(=O)Nc1nc2ccccc2n1Cc1ccccc1C,i,x,i,1e-09,x
CCN(CCO)c1ccc(-n2c(N)c(C(=O)OC)c3nc4ccccc4nc32)cc1,i,3.8%,i,8.5e-09,5%
Cc1cc(C)cc(C(=O)n2cnnc2N)c1,i,0.8%,i,1e-09,x
COc1cccc(-c2nc(CS(=O)CC(=O)NC3CC3)c(C)o2)c1 (stereo not drawn),x,-1.5%,x,x,-2%
O=C(Nc1nccs1)c1ccc(NC(=O)c2ccco2)cc1,i,-0.1%,i,3.4e-08,-4%
COc1ccccc1-c1nc(C(F)(F)F)c(OC)o1,i,1.3%,i,1e-09,u
CCn1cc(C(=O)Nc2ccc(C(=O)N3CCCC3)cc2)c(=O)c2ccc(C)nc21,i,-0.7%,i,6.3e-09,1%
CC(=O)NC1C(=O)N=C(SCc2ccccc2)NC1=O (stereo not drawn),x,1.3%,x,x,2%
O=C(NC1C2CC3CC(C2)CC1C3)C1CC1 (stereo not drawn),i,-0.4%,i,6.7e-09,0%
Brc1cc(Br)c2ncnc(N3CCCCC3)c2c1,i,1.6%,i,2.1e-08,u
Cc1cc(OCc2nnc(SCC(=O)OC3CCCCC3)o2)ccc1Cl,i,1.3%,i,1e-09,17%
CCOc1ccc(NC(=O)C(C)O)c(NS(=O)(=O)c2ccc(CCNC(C)=O)cc2)c1 (stereo not drawn),i,0.1%,i,1.1e-08,-1%
Brc1ccc([C@H]2CN3CCSC3=N2)cc1,i,-2.7%,i,5.1e-09,x
O=c1cc(CN2CCN(c3ccccc3)CC2)c2c(ccc3ccccc32)o1,i,-0.1%,i,1e-09,u
Cc1ccc(N2C(=O)C(Cl)=C(Nc3c(C)n(C)n(-c4ccccc4)c3=O)C2=O)cc1,i,1.5%,i,2.6e-09,x
CCN(CCNC(=O)Cn1c(=O)sc2ccccc21)c1ccccc1,x,-2.0%,x,x,8%
CC1Cc2ccccc2N1C(=O)CSc1nnc2c(n1)[nH]c1ccccc12 (stereo not drawn),i,-0.5%,i,9.4e-09,23%
COc1ccc(NC(=O)c2c(C)oc3c2CCCC3)cc1,i,1.3%,i,2.1e-08,u
N#CCCn1nnc2ccccc21,i,0.7%,i,2e-08,x
O=C(c1ccco1)N1CCN(S(=O)(=O)Cc2ccc(Cl)cc2)CC1,i,-1.2%,i,1e-09,1%
COc1cc2cc(CN(Cc3cccnc3)C(=O)NCc3ccccc3)c(=O)[nH]c2cc1OC,i,2.1%,i,1e-09,-3%
Cn1c(Cl)cnc1C1CC(=O)c2cc(Cl)ccc2O1 (stereo not drawn),i,x,i,1e-09,x
Cc1nonc1NC(=O)c1ccccc1Br,x,1.4%,x,x,3%
Cc1ccnc(Nc2nc(-c3c(C)nc4sccn34)cs2)c1,i,-1.7%,i,1e-09,-16%
COc1ccc(OCC(O)CN2C(=O)NC(C)(C)C2=O)cc1 (stereo not drawn),i,x,i,1e-09,x
Cc1cc(C(=O)CN2C(=O)NC3(CCCCC3)C2=O)c(C)n1Cc1ccc2c(c1)OCO2,i,-0.5%,i,2e-09,u
CCCOc1cccc(C(=O)Nc2cccc(NC(=O)c3ccco3)c2)c1,x,2.0%,x,x,u
Cc1ccc(OCC(=O)Nc2ccc(N3CCCC3)cc2)cc1C,x,3.5%,x,x,-4%[11.4 µM]
Cc1cc(C)n(C(=O)CNC(=O)c2ccco2)n1,i,1.5%,i,3.7e-09,3%
C=CCn1c(SCC(=O)Nc2c(C)cccc2C)nnc1-c1cnccn1,i,-0.5%,i,1.8e-08,-1%
CCCNC(=O)COC(=O)c1ccc(S(=O)(=O)N2CCCCCC2)cc1,i,-0.3%,i,1e-09,0%
C[C@@H](C(=O)NCc1ccc(S(C)(=O)=O)cc1)[C@@H]1C[C@@]1(C)[C@@H](NC(=O)OCc1ccccc1)c1ccccc1,x,0.9%,x,x,1%
CCOC(=O)C1CCN(S(=O)(=O)c2cn(C)c(=O)n(C)c2=O)CC1,x,-5.2%,x,x,u
COc1ccc(OC(=O)CCCN2C(=O)c3ccccc3C2=O)cc1,i,0.3%,i,1e-09,5%
O=C(COc1ccc(Cl)cc1Cl)NCCCN1CCOCC1,x,0.7%,x,x,3%
Cc1onc(-c2ccccc2)c1C(=O)OCC(=O)Nc1ccc2c(c1)OCO2,i,-1.7%,i,1.2e-08,-3%
CCC1Oc2ccc(C)cc2N(CC(=O)NCc2cccc(OC)c2)C1=O (stereo not drawn),i,-1.1%,i,1e-09,u
CC1Cn2c(nnc2-c2cccc(N)c2)S1 (stereo not drawn),x,2.9%,x,x,3%
CCOC(=O)C(CC)n1cnc2sc3c(c2c1=O)CCC3 (stereo not drawn),i,-0.8%,i,1e-09,u
O=C(Nc1cccc2nsnc12)c1cccs1,i,4.5%&12%,i,3e-09&1.4e-08,4%&1%
CC(C)=CCC/C(C)=C/CO/N=C1/C[C@@H](O)[C@@H](O)[C@@H]2[C@@H]3C(=O)N(C4CCCCC4)C(=O)[C@H]3CC[C@@H]12,x,0.7%[11.5 µM],x,x,-9%[11.4 µM]
C=CCn1c(SCC(=O)NCC2CCCO2)nnc1C1CCCCC1 (stereo not drawn),i,1.2%,i,1e-09,-53%[inhibitor]
O=C(COc1nncc2ccccc12)NCCC1=CCCCC1,i,-0.6%,i,8.5e-09,-3%
Cc1ccc(C(c2sc3ncnn3c2O)N2CCC(C)CC2)cc1 (stereo not drawn),x,0.6%,x,x,0%[11.4 µM]
CCC(=O)Nc1nc2c(OC)ccc(C)c2s1,x,-0.3%,x,x,u

# Screening results from PubChem BioAssay.

# The list is partial; the hit share may differ from the screen's.
